NPYLR7 ag = agonists of mosquito NPYLR7 receptor, primary screen, cell-based, Aedes aegypti, calcium fluorescence, mosquito biting behavior | HEK293T NPYLR7/Galpha15, GCaMP6s calcium fluorescence | activation, % at 10 µM | 270,000 tested, 0.15% active; in the data active means activation above about 40%;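 further: 0% = vehicle and 100% = reference agonist at the receptor; some compounds past the cut are filed as inactive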
NPYLR7 ag max-min = also measured in NPYLR7 ag; calls as there; activation, %; measured here: Max-Min RFU normalised activation; some inactives read as strong as hits;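 span of the calcium signal over five minutes; 0% = vehicle and 100% = native peptide agonist; compound fluorescence can raise it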
* marks the source's active call; other numbers are inactive results; & = joins results of further samples.

Values run as follows: NPYLR7 ag	NPYLR7 ag max-min
1: N[C@H](CSC(c1ccccc1)(c1ccccc1)c1ccccc1)C(=O)O
    8	-2
2: CCOCCCNC(=O)c1c(C(F)(F)F)nn(C2CCCN(C)C2)c1C (stereo unspecified)
    9	1
3: C=CC[C@@H]1CC=C[C@@H](C)N1C(=O)c1oc(CC)nc1C
    11	1
4: COc1ccc(CNC(=O)c2cnn3c(C(F)(F)F)cc(-c4ccc5c(c4)OCO5)nc23)cc1
    7	7
5: CCc1nc2ccc(C(=O)NCCN3CCNC3=O)cn2c1N(C)CCN1CCOCC1
    1	5
6: COC(=O)c1c(N)sc(C)c1-c1cccc(Cl)c1
    1	1
7: C[C@]12CC[C@@H](O)C[C@H]1CCc1ccccc12
    -10	-17
8: CCC(c1n[nH]c(CCc2ccccc2)n1)n1cccn1 (stereo unspecified)
    -8	-9
9: Cc1nc(SC(C)c2ccc3ccccc3c2)n[nH]1 (stereo unspecified)
    -6	-5
10: CSc1ccc(N2CC(C(=O)N(C)C3(C#N)CCC3)CC2=O)cc1 (stereo unspecified)
    11	6
11: COc1ccc(OC)c2sc(N3CCCCC3)nc12
    8	4
12: CCN(CC)C(=O)CN1CN(c2ccccc2)C2(CCN(C(=O)C(c3ccccc3)c3ccccc3)CC2)C1=O
    34	28
13: Cc1ccc(C2(O)CCN(C(=O)c3cccnc3C)CC2)nc1
    8	3
14: O=C(NCC(c1ccccn1)N1CCOCC1)c1scc2c1CCCC2 (stereo unspecified)
    16	7
15: CC(C)CCn1c(N2CCCCC2)nc2c1c(=O)n(CC(N)=O)c(=O)n2C
    1	-5
16: CC[n+]1ccn(-c2nc3ccccc3nc2NS(=O)(=O)c2ccc(C)cc2)c1
    4	2
17: C(=C1CCC=C1N1CCOCC1)c1nc2ccccc2[nH]1
    9	14
18: Cc1cc(C)cc(CCC(=O)N2[C@@H]3CC[C@H]2CC(O)C3)c1 (stereo partly specified)
    5	1
19: Cc1ccc(-c2ccnc(NC(C)Cc3ncccc3C)n2)c(C)n1 (stereo unspecified)
    8	7
20: COc1ccc(OC)c(-c2n(C)c3ccccc3[n+]2C)c1
    5	0
21: CC1CCCCC1NC(=O)Cn1ncc2ccccc2c1=O (stereo unspecified)
    -8	-6
22: O=C(c1ccccn1)N1CCN(CC(OCc2ccc(C(F)(F)F)cc2)c2ccc(Cl)cc2)CC1 (stereo unspecified)
    5	-1
23: O=C1CC(C(=O)N2CCCC2c2ccsc2)CN1C1CCS(=O)(=O)C1 (stereo unspecified)
    0	-3
24: CCCn1cc(C(=O)N2CC(Oc3ccccc3OC)C2)c(C)n1
    1	-2
25: CS(=O)(=O)N1CCN(C(=O)CCC2NC(=O)c3ccccc3NC2=O)CC1 (stereo unspecified)
    -4	-5
26: O=C(NC1CC1)c1coc(CN(Cc2ccc(F)cc2)Cc2cccc(F)c2)n1
    17	24
27: CC(C)c1nnc2c3ccccc3nc(N3CCCN(C(=O)c4ccc(F)cc4F)CC3)n12
    3	3
28: CC(C(=O)NS(=O)(=O)CC(C)(C)C)c1ccc(F)cc1F (stereo unspecified)
    5&-1	5&-1
29: COc1ccc(NC(=O)c2sc(=O)n(Cc3ccccc3OC(C)=O)c2C)cc1
    -2	-3
30: Cn1cnc([N+](=O)[O-])c1N1CCN(c2ccccc2O)CC1
    0	3

Single records (already shown):
CC(C(=O)NS(=O)(=O)CC(C)(C)C)c1ccc(F)cc1F (stereo unspecified) is entered as NPYLR7 ag = 5&-1; NPYLR7 ag max-min = 5&-1
COc1ccc(CNC(=O)c2cnn3c(C(F)(F)F)cc(-c4ccc5c(c4)OCO5)nc23)cc1 is entered as NPYLR7 ag = 7; NPYLR7 ag max-min = 7
CC(C)CCn1c(N2CCCCC2)nc2c1c(=O)n(CC(N)=O)c(=O)n2C is entered as NPYLR7 ag = 1; NPYLR7 ag max-min = -5

Following part:
Values run as follows: NPYLR7 ag	NPYLR7 ag max-min
31: Cc1ccccc1N1CCN(c2ncnc3sc4c(c23)CC(C)CC4)CC1 (stereo unspecified)
    1	-2
32: O=C(CC(c1ccc2c(c1)OCO2)c1c[nH]c2ccccc12)NCc1ccc(F)cc1 (stereo unspecified)
    -1	9
33: O=C(NCc1ccccc1Cn1cccn1)C1CCC(=O)N(Cc2ccccn2)C1 (stereo unspecified)
    11	5
34: Cn1cc(C(CC(=O)NCc2ccccn2)c2cccc(C(F)(F)F)c2)c2ccccc21 (stereo unspecified)
    3	4
35: CCS(=O)(=O)c1nc(S(=O)(=O)c2ccc(Cl)cc2)c(NC2CCCC2)s1
    14	10
36: CCOC(=O)c1ccccc1NC(=O)CSc1ccc2nnc(-c3ccc(Cl)cc3)n2n1
    4	20
37: NS(=O)(=O)c1ccc(Sc2ccc3c(c2)OCCCO3)nc1
    6	5
38: Cc1ccc(-c2noc(CN3CCN(C(=O)C(C)C)CC3)n2)cc1
    0	-3
39: C[C@H](NC(=O)C(C)(C)C)C(=O)N1CCC(C(=O)N2CCCCC2)CC1
    1	6
40: Cc1ccc(CNC(=O)C(C)(C)C#N)c(OC2CCOC2)c1 (stereo unspecified)
    -24&3	-25&1
41: Cc1cccc(Oc2cnn(-c3ccc(F)cc3)c(=O)c2Nc2ccc(C(=O)N3CCCC3)cc2)c1
    7	3
42: COC(=O)c1ccccc1NC(=O)CCc1c(C)[nH]c(=O)n(C)c1=O
    -11	-14
43: CCCOc1ccccc1NC(=O)c1sc(-c2ccccn2)nc1C
    10	7
44: Cc1sc2nc(SCC(=O)Nc3ccc(O)cc3)n(Cc3ccco3)c(=O)c2c1C
    -3	-2
45: CN(Cc1cnc2c(-c3ccccc3)cnn2c1)Cc1nccn1C
    2	1
46: C=CCCC(O)CN(Cc1ccccc1)Cc1cccs1 (stereo unspecified)
    31	23
47: Cc1cc(C)c(S(=O)(=O)N2CCN(CC(=O)N3CCOC3=O)CC2)c(C)c1
    -1	-4
48: Cc1cc(C(F)(F)F)nn1Cc1ccc(C(=O)O)cc1
    0	-5
49: COCCCn1ccc2nc3ccn(-n4c(C)nnc4C)c(=O)c3cc2c1=O
    5	11
50: O=C(c1cnn(Cc2ccccc2)c1)N1CCCC(c2ccn[nH]2)C1 (stereo unspecified)
    0	-2
51: Cc1cccc(Cn2nc(C)cc2NC(=O)Cc2nonc2C)c1
    0	7
52: CCN(CC)S(=O)(=O)c1cc(OC)c(Br)cc1OC
    15	12
53: CCCNC(=O)C1(C)CCCN(Cc2ccc(C#N)cc2)C1 (stereo unspecified)
    10	5
54: COc1ccc(OCC(O)CN(CCC(C)C)Cc2cccc(OC)c2)cc1 (stereo unspecified)
    25	17
55: Cn1c2c(c(=O)n(C)c1=O)C(c1cccs1)C1C(=O)OCC1=N2 (stereo unspecified)
    -3	-4
56: CCCCC1C(=O)NCCN1C(=O)c1oc2c(Cl)cccc2c1C (stereo unspecified)
    -6&0	-7&-1
57: C[C@@H]1CN(C(=O)c2ccc3oc(Cc4ccc(Cl)cc4)nc3c2)C[C@H](C)O1
    1	-2
58: COc1cc2nc(-c3ccccc3I)oc(=O)c2cc1OC
    5	16
59: CN(C)S(=O)(=O)c1ccc(=O)n(CC(=O)N(C2CCCC2)C2CCS(=O)(=O)C2)c1 (stereo unspecified)
    1	4
60: CS(=O)(=O)Nc1cccc(C(=O)N2CCCC2c2ccc(F)cc2)c1 (stereo unspecified)
    0	-3
61: O=C(c1ccccc1F)N1CCc2cc(S(=O)(=O)N3CCCCC3)ccc21
    -4	-5
62: CCC1CCC2(CC1)NC(=O)N(CC(=O)NC1CCCCCCC1)C2=O (stereo unspecified)
    2	2
63: O=C(CCS(=O)(=O)C1CCCC1)Nc1cccc(OCc2ccncc2)c1
    9	9
64: Cc1c(-c2nc(CC3CCN(C)CC3)no2)nnn1Cc1ccccc1
    4	-3
65: Cc1ccc(CCNC(=O)C2CCCN2C(=O)C2CCCCC2)cc1 (stereo unspecified)
    27	8
66: CCn1c(C2CCCN(C(=O)Cc3ccccc3Cl)C2)nn(C)c1=O (stereo unspecified)
    7	4
67: CN(C)C(=O)N(Cc1ccc(OS(C)(=O)=O)cc1)Cc1ccco1
    8	22
68: O=C(c1ccc(F)cc1)N1CCCC(OCc2ccc(Br)cc2)C1 (stereo unspecified)
    -4	1
69: CCCc1cnc2c(c1SCc1cccc(C)c1)c(=O)n(C)c(=O)n2C
    3	2
70: O=C(COc1ccc(Br)cc1)NCc1ccncc1
    -1	6
71: CCOC(=O)c1nn(-c2ccc(C)cc2)c(=O)cc1N1CCN(C(=O)c2ccco2)CC1
    8	3
72: COCCNC(=O)Cn1c(CO)cnc1SCC(=O)Nc1ccccc1C(F)(F)F
    6	2
73: O=S(=O)(Nc1ccc(F)cc1F)c1ccc(Cl)cc1F
    0	6
74: O=c1nc(SCc2ccccn2)c2c(n1CCO)CCC2
    -4	-16
75: Cc1ccc(C)c(Nc2nc(-c3ccc([N+](=O)[O-])cc3)cs2)c1
    -2	-12
76: CCOC(=O)c1ccc(OC2CC3CCC(C2)N3C(=O)c2ccc(CSc3ncccn3)cc2)cc1 (stereo unspecified)
    3	-8
77: C=CCOc1cccn2c(N(C)C(=O)C3CC3)c(CC)nc12
    1	1
78: CCn1c(C2CCN(c3ccc(-c4nc(C)no4)cn3)CC2)nn(C)c1=O
    -2	-3
79: COCC1(NC(=O)CC2C(=O)N(C)C(=O)N2C)CCCC1 (stereo unspecified)
    -4	-6
80: CC(OCc1ccccc1)C(=O)NC(C)c1nc(C(C)(C)C)no1 (stereo unspecified)
    8	5
81: COc1cn(CC(=O)Nc2cc(C)ccc2C)c(CSc2nc(C)cc(C)n2)cc1=O
    -3	-9
82: CCOc1ccc(CN2CCNC(=O)C2CC(=O)N2CCN(C3CCCC3)C(=O)C2)cc1 (stereo unspecified)
    9	4
83: CC(=O)N1N=C(c2ccccc2)OC1C(=O)N(C)Cc1ccco1 (stereo unspecified)
    15	6
84: COc1ccccc1C1c2cccn2CCCN1Cc1ccc2c(c1)OCCO2 (stereo unspecified)
    -1	2
85: CCc1noc(CN(C)C(=O)NC2CCOc3c(C)cc(C)cc32)n1 (stereo unspecified)
    2	3
86: CC(C)c1nccc(CN2CCC(OCc3cccnc3)CC2)n1
    20	16
87: Cc1cccc(Cc2ccc3ncc(-c4cccnc4)n3n2)c1
    5	7
88: CCc1nc(CN2CCOc3c(cc(-c4ccc(OC)nn4)cc3OC)C2)c(C)[nH]1
    -1	-3
89: CC[C@H](NC(=O)c1cccc(NCc2ccccn2)c1C)c1ccccc1
    3	-7
90: O=C(NCCC1CCCO1)c1c(-n2cccc2)sc2c1CCCC2 (stereo unspecified)
    1	-1

5 entries already listed, sorted by SMILES length, descending:
Values run as follows: NPYLR7 ag	NPYLR7 ag max-min
71: CCOC(=O)c1nn(-c2ccc(C)cc2)c(=O)cc1N1CCN(C(=O)c2ccco2)CC1
    8	3
72: COCCNC(=O)Cn1c(CO)cnc1SCC(=O)Nc1ccccc1C(F)(F)F
    6	2
63: O=C(CCS(=O)(=O)C1CCCC1)Nc1cccc(OCc2ccncc2)c1
    9	9
62: CCC1CCC2(CC1)NC(=O)N(CC(=O)NC1CCCCCCC1)C2=O (stereo unspecified)
    2	2
86: CC(C)c1nccc(CN2CCC(OCc3cccnc3)CC2)n1
    20	16

Continued.
Values run as follows: NPYLR7 ag	NPYLR7 ag max-min
91: Cn1nnc2c(N3CCN(S(=O)(=O)c4ccccc4)CC3)ncnc21
    0	5
92: O=C(Nc1ccncc1)c1c[nH]c2c(C(F)(F)F)cccc2c1=O
    3	1
93: CCc1ccc(C(=O)NNC(=O)COC)cc1
    7	3
94: CCN1CCN(C(=O)Nc2c(C)cccc2C(C)C)CC1
    6	0
95: CCOC(=O)C1(CCOc2ccccc2)CCN(Cc2c(C)nn(C(C)C)c2C)CC1
    6	5
96: CCCc1nc(N2CCN(S(=O)(=O)c3ccc(OC)cc3)CC2)c2c(-c3ccccc3)noc2n1
    -1	-5
97: O=C(c1ccco1)N(Cc1nccn1Cc1ccc(C(F)(F)F)cc1)CC1CCCO1 (stereo unspecified)
    -1	6
98: CCCCSc1n[nH]c(=S)c2nc[nH]c12
    6	10
99: CCCCCCCC(=O)N1CCSC1c1ccc(Cl)cc1Cl (stereo unspecified)
    -1	4
100: CN(C)C1CCN(C(=O)c2ccc(NC(=O)Nc3ccc(-c4nc(N5CCOCC5)nc(N5CCOCC5)n4)cc3)cc2)CC1
    0	-4
101: COc1ccccc1C(=O)N(Cc1ccc(C)cc1)Cc1nc2cc(C)ccc2o1
    -3	11
102: Cc1cccc(OCCSCc2nc(N)nc(N)n2)c1
    16	10
103: CCC(CC)NC(=O)Nc1ccc2[nH]c(=O)sc2c1
    9	5
104: CCn1cc(C(=O)N2CCN(Cc3ccc(C)cc3)CC2)c2nn(-c3ccccc3)c(=O)c-2c1
    -3	-9
105: CCCc1[nH]n(-c2cccc(Cl)c2)c(=O)c1/C=C1\NC(=O)N(Cc2ccc(C)cc2)C1=O
    -2	8
106: CCOC(=O)c1cnc(SCC(=O)OC)nc1N
    -2	-7
107: COc1ccccc1N(CN1C(=O)c2ccc(Br)cc2C1=O)C(C)=O
    -14	-19
108: O=C(NCc1nc2c(s1)CCCC2)c1cn[nH]n1
    -1	-9
109: O=C(NCCN1CCOCC1)N1CCOC2CCCC21 (stereo unspecified)
    9	7
110: Cc1ccc(C2c3cccn3CCCN2Cc2ccc(O)cc2O)cc1C (stereo unspecified)
    2	11
111: COc1ccc(-c2ncnc3sc(C)c(C)c23)c2cccnc12
    0	1

High-throughput results from PubChem BioAssay.

A portion of the library. The share of hits here may be higher or lower than overall.
